# Screens deposited in PubChem BioAssay by several laboratories.
# HIV Env fusion = blocks HIV Env-driven cell-cell fusion. 360,000 tested, 1.1% active. HeLa-JRFL Env/CEM21 cell fusion, luciferase. inhibition, % at 12.3 µM;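 active = mean replicate inhibition score of at least 50 and every replicate individually at or above 50; inconclusive = only one of the two criteria met; inactive = mean below 50 and not all replicates reaching 50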;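 also: 0% = plate neutral controls and 100% = maraviroc near 300 nM; one replicate is shown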
# eIF4H FP inh = inhibitors of RNA binding by human eIF4H; Q15056; AID 2012; 290,000 tested, 0.94% active; eIF4H fluorescence polarization binding assay; inhibition, % at 35 µM;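 active = 50% or more with normal probe brightness, or confirmed in later tests; inconclusive = above 50% with abnormal brightness, or retests that disagree; inactive = below 50% or failed in later tests; about a fifth of its hits are not listed in these tables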;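 also: calls also rest on retests at 20 µM and on dose response follow-up; 0% = protein and probe with vehicle and 100% = probe without protein; strong numbers were not always called active; many hits fall short of the cut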
# UUG fidelity = yeast start codon fidelity modulation. S. cerevisiae UUG-firefly luciferase reporter, luminescence/redox ratio. activity score, % at 18.7 µM. 350,000 tested, 0.13% active. AID 602363;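 active = replicate mean at a twofold rise or more, about +100% in these data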;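 also: firefly luciferase made from a UUG start codon reports start codon fidelity; reporter light over untreated wells divided by growth signal over untreated wells; some hits fall short of that in this replicate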
# PABP polyA inh = blocks human PABP binding to poly(A) RNA | fluorescence polarization | inhibition, % at 35 µM | 290,000 tested, 1% active | AID 2014;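 active = 50% or more with normal probe brightness, or confirmed in later tests; inconclusive = above 50% with abnormal brightness, or retests that disagree; inactive = below 50% or failed in later tests; about a fifth of its hits are not listed in these tables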;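 also: calls also rest on retests at 20 µM and on dose response follow-up; controls were probe without protein and protein plus probe with vehicle; some compounds called inactive have numbers as strong as hits; many hits fall short of the cut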
# Rce1 inhib = inhibitors of yeast Ras-converting enzyme; yeast membranes, quenched prenylated peptide cleavage fluorescence; 290,000 tested, 0.27% active; Q03530; calls only; AID 2563;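 active = fall in fluorescence gain of 50% or more versus controls, with final raw signal at or below 3038400; inconclusive = same 50% fall but final raw signal above 3038400; inactive = fall in fluorescence gain under 50%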;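 also: plate controls were neutral control wells for no effect and wells lacking membranes for full effect; tested at 10 µM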
# Target sequence (Q03530 whole entry, looked up): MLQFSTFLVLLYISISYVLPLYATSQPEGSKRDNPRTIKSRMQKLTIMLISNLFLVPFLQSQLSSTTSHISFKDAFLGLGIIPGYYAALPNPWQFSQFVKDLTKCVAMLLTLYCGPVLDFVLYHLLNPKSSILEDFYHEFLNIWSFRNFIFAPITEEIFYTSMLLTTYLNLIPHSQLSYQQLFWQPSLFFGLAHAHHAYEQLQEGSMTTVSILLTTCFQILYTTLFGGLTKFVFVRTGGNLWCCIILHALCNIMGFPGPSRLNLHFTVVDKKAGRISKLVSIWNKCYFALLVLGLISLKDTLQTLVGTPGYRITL
# CSC inhib = blocks cancer stem cells | cancer stem cell-like cells viability, luminescence | inhibition, % at 7.5 µM | 300,000 tested, 1.1% active | AID 2717;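 active = mean at 75% or more and at least half the replicates too; inconclusive = mean and replicates disagree; tested in HMLE shEcad cells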;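 also: 0% = median of negative and 100% = median of positive control wells; the first replicate is given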
# MT1-MMP act inh = blocks activation of human MT1-MMP | P50281 | HT1080 RFP-PRO-GFP cells, GFP/RFP ratio fluorescence, overnight; percent of plate control window, DMSO zero | GFP/RFP ratio change, % at 20 µM | 360,000 tested, 0.061% active | AID 651647;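 active = GFP/RFP ratio change of at least 30% with cell ATP level not reduced by more than half and red fluorescence within 50% of control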; also: strong numbers were not always called active
#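 Assay system – RFP-PRO-GFP reporter HT1080 cells · Compound dosing – single dose of 20 µM compound, 1% DMSO final · Incubation – overnight compound exposure at 37 °C · Measure – GFP/RFP fluorescence ratio · Benchmarks – DMSO wells and RFP-L50D-GFP cells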
# eIF4H FP inh retest = also measured in eIF4H FP inh; calls as there; inhibition, %; compound at 20 µM; confirmation average;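 mean of two retest wells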
# PABP polyA inh retest = second read-out of PABP polyA inh, no call of its own (marks repeat the call); inhibition, %; compound at 20 µM; confirmation repeats;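 mean of two retest wells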
# MT1-MMP act inh RFP = also measured in MT1-MMP act inh; calls as there; RFP signal change, %; measured here: RFP expression control read;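 0 = vehicle wells; hits needed this value within 50% of zero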
# Active calls of the source: *; i = inactive; u = inconclusive; x = no result given. A portion of the library (hit frequency here may not be typical).
SMILES,HIV Env fusion,eIF4H FP inh,UUG fidelity,PABP polyA inh,Rce1 inhib,CSC inhib,MT1-MMP act inh,MT1-MMP act inh RFP,others
COc1ccc(C)cc1N(CC(=O)N1CCc2ccccc2C1)S(C)(=O)=O,2.8,-4.2,x,-1.0,i,-17.3,-3.8,3.5,
O=C(N/C(=C\c1cccs1)C(=O)N1CCCCCC1)c1ccccc1,x,-11.3,13.1,-3.3,i,0.5,3.4,1.0,
CC(C)(C)OC(=O)N1Cc2ccccc2C[C@H]1C(=O)N1CCC[C@H]1C(=O)O,0.7,-8.4,-0.8,-3.7,i,4.9,-4.2,-0.7,
CSc1nc2ncc(C(=O)O)c(N)n2n1,-1.1,-2.4,-9.2,4.9,i,-11.7,-0.7,5.7,
COc1cccc(-c2nnn(CC(=O)NC3CCCC3)n2)c1OC,0.8,3.4,-11.6,2.4,i,-2.4,7.4,1.9,
CCOc1ccc(Br)cc1C(=O)N/N=C/c1cccc(C)n1,-23.4,4.7,-11.2,-8.6,i,-7.2,4.8,2.9,
CC1CCCC(C)N1C(=O)COC(=O)c1cc(Br)ccc1Cl (stereo not drawn),1.1,-13.2,x,2.7,i,-13.6,-3.5,0.6,
CC(C)(C)NC(=O)NC(=O)COc1ccc(Br)cc1Br,-166.9,-6.8,x,4.7,i,0.1,4.3,-3.0,
CCCn1c(SCC(=O)Nc2ccc3c(c2)OCO3)nc2c1c(=O)n(C)c(=O)n2C,16.6,-0.3,-16.1,9.1,i,16.0,-0.3,3.2,
C[C@]12C(=O)N(c3cccc(Cl)c3)C(=O)N1[C@H]1c3ccccc3OC[C@@H]1[C@H]2c1ccccc1,x,-4.3,-9.5,1.4,i,-8.4,-0.7,-1.0,
COc1ccc(CCNC(=O)c2cccc(S(=O)(=O)N3CCc4ccccc4C3)c2)cc1,17.6,x,-17.3,x,x,-7.3,3.2,-7.2,
COc1ccc(/C=C2\SC(=O)N(CCC(=O)N3CCCCC3)C2=O)cc1OC,9.6,2.9,-5.0,-5.6,i,1.2,x,x,
CCCNC(=O)NS(=O)(=O)c1ccc(Cl)cc1,5.1,-4.5,-31.1,8.4,i,-7.0,-3.2,-4.0,
COc1ccc(CC(=O)Nc2cccc(S(=O)(=O)N3CCCCC3)c2)cc1,7.2,x,8.2,x,x,x,5.5,-10.4,
Cc1ncc([N+](=O)[O-])n1CC(=O)Nc1ccc(F)c(F)c1,-8.3,-13.9,-5.0,-4.7,i,2.1,-4.4,-0.4,
CC(C(=O)c1c[nH]c(C(=O)N=CN(C)C)c1)c1ncc(C(F)(F)F)cc1Cl (stereo not drawn),-15.4,6.7,x,98.3,i,-12.7,-0.1,-0.5,eIF4H FP inh retest=-15.5;PABP polyA inh retest=4.2
COc1ccccc1C(=O)Nc1ccc(Br)c2cccnc12,10.4,4.3,-12.5,-3.9,i,5.1,-3.3,-4.2,
NC(=O)c1cc(-c2ccccc2)sc1NC(=O)CN1CCCCC1,0.0,-21.7,x,-23.2,i,x,1.8,-0.8,
OC[C@@H]1CN(Cc2ccco2)C[C@H](n2cnc3c(NCc4ccncc4)ncnc32)O1,1.5,x,-16.5,x,x,x,-1.5,5.6,
N/C(=N\OC(=O)COc1ccc(Br)cc1Cl)c1cccnc1,-25.8,-0.2,x,-1.7,i,18.8,-2.5,-1.2,

# Among those listed so far, 2 contain a tert-butyl group.
SMILES,HIV Env fusion,eIF4H FP inh,UUG fidelity,PABP polyA inh,Rce1 inhib,CSC inhib,MT1-MMP act inh,MT1-MMP act inh RFP,others
CC(C)(C)OC(=O)N1Cc2ccccc2C[C@H]1C(=O)N1CCC[C@H]1C(=O)O,0.7,-8.4,-0.8,-3.7,i,4.9,-4.2,-0.7,
CC(C)(C)NC(=O)NC(=O)COc1ccc(Br)cc1Br,-166.9,-6.8,x,4.7,i,0.1,4.3,-3.0,

# Carrying on:
SMILES,HIV Env fusion,eIF4H FP inh,UUG fidelity,PABP polyA inh,Rce1 inhib,CSC inhib,MT1-MMP act inh,MT1-MMP act inh RFP,others
COc1ccc(OC)c(Nc2cc(C)nc3nc(C)nn23)c1,-33.8,-9.1,-17.2,-0.3,i,8.7,-0.7,0.5,
Cc1ccc(C(=O)OCC(=O)Nc2cc(Cl)ccc2C#N)o1,4.7,x,-8.4,x,x,x,-1.1,2.3,
O=C(COc1cccc(F)c1)NNC(=O)Cc1ccc(S(=O)(=O)N2CCOCC2)s1,x,x,7.9,x,x,7.3,-4.4,1.4,
COc1cccc(NC(=O)CN2C(=O)COc3ccc(S(=O)(=O)N4CCCCCC4)cc32)c1,4.8,-12.8,7.6,9.3,i,-9.7,2.2,2.3,
CCN(C(=S)NC(=O)c1ccco1)c1cccc2ccccc12,15.5,x,-7.6,x,x,2.1,-0.9,8.2,
O=C(Cc1ccc(F)cc1)NC1CCCC1,x,11.8,-13.1,5.1,i,-6.7,-4.8,-2.4,
Cc1ccccc1N1CCN(CCCOc2ccc3c(C)cc(=O)oc3c2)CC1,-12.1,-11.0,-8.7,-7.4,i,33.6,-7.1,-4.1,
Cc1cc(C)c(NC(=O)COC(=O)c2ccc([N+](=O)[O-])s2)c(C)c1,-35.5,-4.3,-33.9,-9.8,i,7.2,-3.8,4.1,
CCn1cc(C(=O)NCc2ccc3c(c2)OCO3)c(=O)c2cc(F)c(N3CCN(C(=O)c4ccco4)CC3)cc21,x,-1.9,x,-0.2,i,25.8,-0.9,-18.3,
CCn1cc(C(=O)NCCc2ccc(Cl)cc2)c(=O)c2ccc(C)nc21,12.1,-4.1,x,0.1,i,x,-4.8,-1.9,
OC1(c2cccs2)CN(c2ccccc2)C2=[N+]1CCCC2 (stereo not drawn),5.2,3.4,-5.6,58.8,i,-1.7,-2.1,-1.7,eIF4H FP inh retest=-0.1;PABP polyA inh retest=10.2
COc1cc2c(cc1OC)C(C)N(S(=O)(=O)c1ccc(Cl)nc1)CC2 (stereo not drawn),-9.7,-2.0,-6.7,-5.1,i,7.7,-2.6,-3.2,
NC(=O)c1ccc(NC(=O)CSc2nnc(C3CCCCC3)n2N)cc1,5.1,-1.1,-18.9,3.9,i,-17.0,-0.6,2.0,
C=CCSC1=C(C#N)C(c2cccc(OC)c2)CC(=O)N1 (stereo not drawn),x,-17.7,0.2,-3.0,i,3.9,1.4,0.5,
Cc1ccc(NC(=S)N2CCN(S(=O)(=O)c3ccccc3)CC2)cc1,-3.1,0.4,-1.9,3.8,i,-2.0,-4.1,-2.3,
N#CCCN(C(=O)Nc1ccccc1)C1CCCCC1,-92.6,x,1.4,x,x,x,3.0,2.2,
CCOC(=O)c1c(C)[nH]c(C2=NNC(=Nc3ccccc3)SC2)c1C,-46.8,-7.2,0.2,-0.4,i,x,2.2,-3.1,
COc1cccc(N2CCN(C(=O)c3cccc(NC(=O)C4=C(C)OCCS4)c3)CC2)c1,19.2,x,-6.4,x,x,x,2.4,-5.7,
Cc1cccc(OCCOCCN2CCNCC2)c1C,43.7,-3.7,-7.3,6.0,i,10.4,0.1,2.7,
COc1cc2c(cc1OC)C(C1C(=O)CC(C)(C)CC1=O)N(C(=O)CCl)CC2 (stereo not drawn),10.3,-2.9,x,6.0,i,4.3,-1.8,2.2,
CC1CCCCC1NC(=O)C1CC=CCC1C(=O)O (stereo not drawn),10.3,-5.8,-16.4,-1.0,i,-5.1,0.7,4.2,
Cc1ccccc1COc1ccc(/C=N/NC(=O)c2nnn(-c3nonc3N)c2CN2CCC(C)CC2)cc1,-0.6,-13.9,-6.8,3.8,i,-6.0,-5.0,-8.5,
COc1cc(C)c(-c2[nH]ncc2-c2csc(C)n2)c(O)c1,0.9,6.2,x,-7.2,i,-9.4,-4.3,-3.5,
CCC(=O)N1CCCc2cc(S(=O)(=O)N3CCCc4ccccc43)ccc21,x,0.6,-2.4,-1.6,i,7.6,4.5,-8.2,
CCCCN(C)C(=O)c1nc2ccccn2c1CN1CCN(c2ccccn2)CC1,2.2,1.4,2.6,3.8,i,-11.1,-0.5,-3.9,
CC(=O)c1ccc(OCC(=O)N(C)CC(=O)Nc2ccc(N3CCOCC3)cc2)cc1,x,x,-9.0,x,x,1.2,-0.6,-0.1,
CN(C)c1ccc(S(=O)(=O)N2CCCCC2)cc1NC(=O)CN1C(=O)NC2(CCCC2)C1=O,6.3,x,x,x,i,-3.2,5.7,3.8,
CCC(=O)Nc1nnc(SCCN2CCOCC2)s1,6.6,4.9,x,-2.8,x,-13.5,1.3,2.5,
Cc1c(NC(=O)COC(=O)c2cccn2C)c(=O)n(-c2ccccc2)n1C,2.3,x,x,x,x,-12.8,4.8,6.0,
O=C(NCC(=O)N(Cc1cccs1)C(C(=O)NC1CCCC1)c1cccnc1)c1ccco1 (stereo not drawn),x,18.8,-0.5,4.1,i,1.8,-0.9,0.4,
CCOC(=S)SCC(=O)N1CCc2ccccc2C1C1C(=O)CC(C)(C)CC1=O (stereo not drawn),-2.9,6.2,3.0,14.5,i,0.7,4.1,4.6,
Cc1ccc(OCC(=O)Nc2ccncc2)cc1,7.2,0.9,-11.6,-1.4,i,-14.4,12.6,-2.0,
CCCCc1nn(-c2cc(Cl)ccc2OC)c2c1C(=O)CC(C)(C)C2,57.4*,-2.9,11.2,1.3,i,-3.0,-5.6,-2.1,
CN1C(C(=O)NCCc2cccs2)CC2Cn3c(nc4cc(Cl)c(Cl)cc43)C21 (stereo not drawn),-6.6,-4.1,-6.2,10.5,i,-15.6,4.0,1.6,
COc1ccc(CCn2cnc(=O)c(C#N)c2C)cc1OC,-2.1,-14.6,x,-2.0,i,x,9.5,3.6,
COc1ccc(/C=N/NC(=O)c2cccc(COCC(F)(F)C(F)F)c2)cc1,7.9,1.9,x,4.3,i,5.7,-0.6,0.9,
CCCOc1ccccc1NC(=O)CC1Nc2ccccc2NC1=O (stereo not drawn),x,-4.1,x,-1.4,i,-4.7,-11.9,-5.3,
O=C(NCCc1ccccc1)c1cnc2ccccn2c1=O,-16.8,10.2,-42.0,0.4,u,-7.4,-2.6,4.1,
COc1ccc(Cc2n[nH]c(=S)n2N)cc1OC,-14.2,-4.3,-13.2,6.4,i,-3.7,1.5,2.2,
CCCN(CC(=O)Nc1ccccc1C)C(=O)C1CC(=O)N(Cc2ccccc2)C1 (stereo not drawn),-2.9,x,7.0,x,i,x,-1.1,3.2,
O=C(CSC1=NCCN1)Nc1cccc(C(F)(F)F)c1,-12.3,0.6,x,-2.8,i,-6.4,1.2,4.0,
COc1ccc(OC)c(NC(=O)c2ccc(CN3CCc4ccccc4C3)cc2)c1,20.5,-16.9,-8.5,-5.5,i,2.0,-2.2,-1.4,
O=S(=O)(Nc1ccccn1)c1ccc(C(F)(F)F)cc1Cl,11.9,-7.2,-13.7,-0.4,i,-9.3,-1.7,3.1,
CNC(=O)C(=O)N/N=C/c1cccnc1,-0.1,2.0,x,9.0,i,-7.4,0.6,1.9,
NC(=O)N/N=C/c1c(Sc2nnnn2-c2ccccc2)nc2ccccn2c1=O,3.4,-10.2,x,2.7,i,25.3,-9.2,-22.2,
Cn1c(O)c(/C=C2\C=Nc3ccccc32)sc1=Nc1ccc(C(=O)O)cc1,18.8,2.8,-23.7,25.0,i,6.5,2.6,2.6,
Cc1cc(NC(=O)CCCC(=O)N(CC(=O)NCCc2ccccc2)Cc2ccc(F)cc2)no1,u,7.6,-9.0,7.0,i,4.9,7.3,4.2,
O=C(Nc1ccc(S(=O)(=O)N2CCOCC2)cc1)c1ccc(Br)o1,-18.2,2.9,-17.1,4.9,i,0.0,5.5,2.0,
